Screens deposited in PubChem by several laboratories.
UCH37 DUB inh: human UCH37 deubiquitinating enzyme inhibition; Q9Y5K5; purified proteasome/UCH37, Ub-AMC cleavage fluorescence; inhibition, % (concentration not given with the values); 0.33% of 330,000 active; AID 588478;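 active = mean of two replicates above 20%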;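 note: 0% = compound-free wells with enzyme and 100% = wells lacking proteasome; stock transfer was 100 nL into about 20 µL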
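Schedule: 30 min plus 25 min, room temperature / Material: human UCH37 within purified proteasomes / Technique: AMC fluorescence intensity at 355/460 nm / Buffer or medium: pH 7.4 Tris-HCl (50 mM) with ovalbumin, ATP-MgCl2, DTT / Controls: wells without proteasome as full block, compound-free enzyme plus substrate as uninhibited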
Vif TR-FRET: inhibitors of Vif binding to APOBEC3G peptide, primary screen, biochemical, TR-FRET, GST-Vif 1-94, biotin-A3G peptide, dose response retest (AID 1117319); TR-FRET GST-Vif / biotin-A3G peptide binding; higher % means a stronger effect; test concentration not given here; strong numbers were not always called active; inhibition, %, or IC50 in µM where a hit was titrated; 0.57% of 260,000 active;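 active = above the screen mean plus three standard deviations and confirmed in dose response; inconclusive = results disagree or hit not tested in dose response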;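 note: Vif residues 1-94 fused to GST binding biotinylated APOBEC3G peptide 110-148; 0% = full assay without inhibitor and 100% = GST in place of GST-Vif; retest series ran down from 100 µM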
Ecoli growth: inhibitors of Escherichia coli growth; OD600, 23 h; active compounds read low; OD600 absorbance (concentration not given with the values); 0.21% of 330,000 active;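 active = OD600 absorbance below the run mean of sample wells minus 3.6 SD, in any replicate, cut at about 0.56 in these data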;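 note: stock transfer was 300 nL into about 60 µL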
LANA-H2A inh: blocks KSHV LANA binding to histone H2A/H2B; cell-free LANA-H2A/H2B peptide, fluorescence polarization; inhibition, % (concentration not given with the values); 0.6% of 320,000 active; in the data active = inhibition mostly above about 10%, no sharp cut-off; inactive = mostly below about 6.7%;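 note: stock transfer was 7.5 nL into about 10 µL; 0% = median of vehicle wells and 100% = median of positive control wells; one replicate is shown; the record names a cut of 25% in any replicate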
Target sequence (Q9QR71 whole entry, looked up): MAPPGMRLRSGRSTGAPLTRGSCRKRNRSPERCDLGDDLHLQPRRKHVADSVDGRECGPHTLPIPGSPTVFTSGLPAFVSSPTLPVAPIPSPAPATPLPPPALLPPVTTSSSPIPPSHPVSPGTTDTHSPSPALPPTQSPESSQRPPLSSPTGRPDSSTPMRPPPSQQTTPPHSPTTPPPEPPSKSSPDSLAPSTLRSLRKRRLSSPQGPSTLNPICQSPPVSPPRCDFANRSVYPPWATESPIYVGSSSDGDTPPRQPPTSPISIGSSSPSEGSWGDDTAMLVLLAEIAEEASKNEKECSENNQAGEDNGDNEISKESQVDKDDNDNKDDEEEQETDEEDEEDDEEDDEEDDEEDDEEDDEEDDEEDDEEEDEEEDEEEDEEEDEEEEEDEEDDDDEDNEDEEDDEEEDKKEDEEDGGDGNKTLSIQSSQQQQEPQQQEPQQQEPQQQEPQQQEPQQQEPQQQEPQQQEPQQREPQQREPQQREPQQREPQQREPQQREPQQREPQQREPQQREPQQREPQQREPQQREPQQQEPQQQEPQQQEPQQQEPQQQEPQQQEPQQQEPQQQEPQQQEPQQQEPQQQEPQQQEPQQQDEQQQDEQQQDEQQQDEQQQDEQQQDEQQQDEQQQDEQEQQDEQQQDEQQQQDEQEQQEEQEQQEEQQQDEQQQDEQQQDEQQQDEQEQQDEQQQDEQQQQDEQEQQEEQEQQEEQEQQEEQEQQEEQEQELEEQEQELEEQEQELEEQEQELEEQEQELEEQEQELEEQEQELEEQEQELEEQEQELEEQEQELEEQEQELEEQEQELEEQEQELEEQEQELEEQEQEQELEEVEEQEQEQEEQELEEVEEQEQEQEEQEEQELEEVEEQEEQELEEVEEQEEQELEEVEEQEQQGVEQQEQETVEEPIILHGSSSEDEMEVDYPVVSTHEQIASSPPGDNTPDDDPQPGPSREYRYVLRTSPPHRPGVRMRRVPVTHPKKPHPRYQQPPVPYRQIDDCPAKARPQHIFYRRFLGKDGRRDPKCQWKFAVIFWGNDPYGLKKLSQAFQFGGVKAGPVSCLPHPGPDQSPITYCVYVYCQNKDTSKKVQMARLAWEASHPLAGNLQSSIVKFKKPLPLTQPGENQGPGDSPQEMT
B2AR ag: agonists of human beta-2 adrenergic receptor inducing internalization; P07550; Am2.2-beta2AR cells, FAP receptor internalization, flow cytometry; reference of the scale not given here; response, % (concentration not given with the values); 0.43% of 340,000 active; AID 504454;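 active = response above a set limit, near 3 SD of response in nonfluorescent compounds, cut at about 42% in these data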;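 note: stock transfer was 100 nL into about 11 µL; a reference agonist was the positive control; negative values mostly stem from fluorescent compounds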
HNF4A DNA FP: change in binding of human HNF4 alpha to DNA. 0.3% of 360,000 active. P41235. activity change, % at 10 µM. HNF4a-FITC DNA binding, fluorescence polarization, 1 h. AID 1224865; in the data active = activity change above about 30%, passing the limit was not always enough;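 note: controls were the assay level and a saturating level of protein; the project sought stronger binding though the title names inhibitors; some compounds called inactive have numbers as strong as hits; positive values seem to mean higher polarization but the record does not say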
Bfl-1 A1 inh: inhibitors of the anti-apoptotic protein A1, read as caspase activation | caspase activation, % (concentration not given with the values) | AID 2462 | MEF A1-2A-BIM cells, Caspase-Glo 3/7 luminescence, 3 h; percent of clofoctol response, vehicle zero | 0.066% of 330,000 active;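 active = over half of replicate activation scores above 10%, or exactly half above 10 with the replicate mean above 10; inconclusive = replicate mean below 10 yet half the replicates above 10; inactive = over half of replicates below 10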;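 note: wells of about 30 µL received 50 nL stock; many hits fall short of the cut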
An asterisk follows results filed as active; ? = inconclusive; . = not tested or not shown. Rows were taken by chance (roughly 2.1% active in at least one column).

| Structure | UCH37 DUB inh | Vif TR-FRET | Ecoli growth | LANA-H2A inh | B2AR ag | HNF4A DNA FP | Bfl-1 A1 inh |
| --- | --- | --- | --- | --- | --- | --- | --- |
| CCCNC(=O)c1ccc(CNc2c(N3CCC(C(=O)OCC)CC3)c(=O)c2=O)cc1 | 3.6 | 11% | 0.75 | 1.2 | -1 | -2.8 | 1.6 |
| O=C(c1cc(Br)c[nH]1)N1CCSCC1 | 0.5 | -5% | 0.67 | -2.3 | -18 | 3.2 | -0.1 |
| COC(=O)c1cc(OC)c(OC)c(OC)c1NC(=O)c1ccc(S(=O)(=O)N(C)C)cc1 | 1.2 | 2% | 0.65 | -2.1 | 4 | 3.3 | -1.7 |
| O=C(CN(Cc1ccco1)C(=O)CNS(=O)(=O)c1ccc(F)cc1)NCc1ccc(F)cc1 | 0.5 | -1% | 0.7 | -0.9 | -9 | -3.7 | 0.1 |
| CCOC(=O)c1nn(-c2ccccc2)c(=O)cc1SC(C)C | 0.9 | 1% | 0.67 | 4.6 | -2 | 2.3 | 0.3 |
| COc1ccc(CCNC(=O)Cn2cnc3scc(-c4ccccc4)c3c2=O)cc1OC | 1.9 | -8% | 0.72 | -3.1 | 0 | -0.3 | -0.4 |
| CCOc1ccc(N(C)S(=O)(=O)c2ccc3[nH]cc(C(=O)NCCCOC)c(=O)c3c2)cc1 | 2.3 | 3% | 0.63 | 0.0 | -1 | -2.3 | 0.9 |
| Cc1ccc(OCC(=O)Nc2c(C)ccc3nsnc23)cc1 | -17 | -11% | 0.7 | 0.2 | -8 | 2.5 | 0.3 |
| CCC(C)(C)NC(=O)C(c1ccc(C)o1)N(Cc1ccc2c(c1)OCO2)C(=O)c1snc(C(N)=O)c1N (stereo unspecified) | -12 | -1% | 0.71 | -1.8 | -4 | -0.9 | 0.5 |
| O=C(Nc1cccc(NC(=O)c2cccs2)c1)c1ccc(Br)o1 | 3.2 | 0% | 0.67 | 0.8 | 8 | 0.7 | 0.1 |
| COC(=O)c1sc(S(=O)(=O)N2CC(C)OC(C)C2)c(C(=O)OC)c1C (stereo unspecified) | 1.0 | -6% | 0.66 | . | 3 | 0.9 | . |
| COC(=O)c1cc(S(=O)(=O)N2CCCCC2)c[nH]1 | 1.4 | 7% | 0.68 | 7.6 | 1 | -2.2 | 0.2 |
| O=c1[nH]c(N2CCc3ccccc32)nc2c1CCCC2 | -8.1 | -2% | 0.83 | -5.7 | 1 | -1.3 | 0.1 |
| Cc1cc(C)n2nc(SC3CCCCN(C(=O)c4ccc(F)cc4)C3=O)nc2n1 (stereo unspecified) | 5.7 | 10% | 0.69 | -2.9 | -4 | 0.0 | 0.7 |
| Cc1cccc(-n2c(=O)[nH]c3c(C(N)=O)nc(CC(C)C)nc32)c1 | -9.4 | ? | 0.73 | 9.4 | -1 | -4.0 | 0.5 |
| CCOC(=O)c1c2c([nH]c(=S)c1C#N)CCCC2 | 2.6 | -17% | 0.66 | 2.3 | 1 | 0.4 | -0.5 |
| C/C(O)=c1/ccc2cccc3nc(C)nc1c23 | -30 | 33% | 0.62 | -6.4 | 0 | -5.6 | 0.5 |
| CCNc1nc(OC)nc(Oc2ccc(C(=O)OC)cc2)n1 | 2.7 | 0% | 0.69 | -0.2 | 8 | -1.5 | -0.9 |
| O=C(N=C1SC2CS(=O)(=O)CC2N1Cc1ccccc1)C1CCCO1 (stereo unspecified) | 1.7 | . | 0.67 | 2.4 | -2 | 3.3 | 0.2 |
| O=c1[nH]cnc2scc(-c3ccc(Br)cc3)c12 | . | 2% | . | 1.0 | 1 | -0.7 | 0.0 |
| COc1cccc(CNc2ccc3[nH]c(=O)[nH]c3c2)c1OCc1ccccc1 | 1.3 | . | 0.66 | 9.8 | 16 | 2.8 | 0.1 |
| CCn1cc(C(=O)NCC(OC)OC)c(=O)c2cc(S(=O)(=O)N3CCC(C)CC3)ccc21 | 6.9 | . | 0.71 | -5.1 | 2 | 2.9 | -1.4 |
| O=C(NCc1cccs1)C1CCCN(c2ncccn2)C1 (stereo unspecified) | -5.4 | -1% | 0.72 | 1.4 | -1 | -4.8 | 0.0 |
| COCCN(C(=O)COC(=O)CCC(=O)c1cccs1)c1c(N)n(Cc2ccccc2)c(=O)[nH]c1=O | 0.6 | 3% | 0.66 | 1.4 | 3 | -0.3 | -0.3 |
| CN1CCN(S(=O)(=O)c2cccc3nsnc23)CC1 | 2.0 | . | 0.69 | -0.3 | 2 | -1.7 | 0.1 |
| O=S(=O)(c1ccc2c(c1)OCCO2)N1CCN(Cc2ccc3c(c2)OCO3)CC1 | 3.3 | 6% | 0.72 | -1.2 | 0 | 3.7 | -0.9 |
| Cc1nc(SCC(O)CO)c([N+](=O)[O-])[nH]1 (stereo unspecified) | 4.8 | 3% | 0.73 | -2.1 | -7 | -0.8 | 0.0 |
| COc1ccc(NS(=O)(=O)c2ccc3oc(SCc4ccc(F)cc4)nc3c2)cc1 | 2.5 | . | 0.71 | 2.1 | -4 | 2.5 | 0.1 |
| O=C(Cc1ccc(Cl)cc1)Nc1ncccn1 | 0.2 | -5% | 0.65 | 2.0 | -5 | 2.1 | -0.9 |
| Cc1cc(CNC(=O)COc2ccc(F)cc2)c2ccccc2n1 | 2.0 | -11% | 0.71 | 4.8 | 0 | 1.1 | -0.5 |
| CC1CCN(C(=O)Cn2nnc(-c3ccccc3)n2)CC1 | 6.6 | . | 0.68 | -2.1 | -6 | -2.1 | -0.5 |
| Cc1ccc(S(=O)(=O)N2CCN(Cc3ccccc3)CC2)c(C)c1N(C)S(=O)(=O)c1ccccc1 | -1.6 | 17% | 0.74 | -0.5 | 1 | 2.5 | -0.3 |
| O=C(c1ccc(F)cc1)N1CCN(C2CC3CCC2C3)CC1 (stereo unspecified) | 0.0 | 24% | 0.69 | -0.3 | 2 | -5.6 | 0.5 |
| O=C(N/N=C/c1cc(Cl)c(O)c(Cl)c1)c1cc2c(ccc3ccccc32)o1 | . | -1% | . | -2.1 | 9 | 2.6 | 1.7 |
| O=C(CSc1ccc(F)cc1)Nc1cccc(S(=O)(=O)N2CCOCC2)c1 | 0.4 | -7% | 0.66 | 3.6 | -1 | -4.4 | 0.7 |
| CC(C)/C=C/CN1CCCC(N2CCN(c3cccc(Cl)c3)CC2)C1 (stereo unspecified) | 2.8 | . | 0.64 | 0.4 | 16 | -1.3 | 0.1 |
| COc1ccccc1NC(=O)c1cc(Cl)nnc1Cl | 1.7 | -15% | 0.63 | 2.3 | 0 | 4.5 | -0.1 |
| COCc1cc(=O)[nH]c(/N=C(\N)Nc2ccc(C)cc2)n1 | . | -4% | . | 3.0 | 0 | 3.8 | 1.2 |
| O=C(OCC(=O)N1CCCCC1)c1ccccc1SCC(=O)N1CCCCC1 | -1.5 | . | 0.71 | -1.1 | -5 | -3.6 | 0.0 |
| OCCNCC1(O)C2CC3CC(C2)CC1C3 (stereo unspecified) | 1.7 | 2% | 0.67 | -0.9 | -2 | 1.8 | 0.2 |
| O=C(O)CNS(=O)(=O)c1ccc2c(c1)CCCC2 | 3.2 | 21% | 0.69 | -0.9 | 5 | 2.9 | -0.3 |
| Cc1c(C#N)c(N=CN(C)C)c(C(=O)c2ccc(Br)cc2)n1-c1ccccc1 | 6.5 | -3% | 0.69 | -0.5 | -7 | 2.4 | 0.9 |
| Cn1c(C(=O)OCC(=O)NCCc2ccccc2)cc2sccc21 | 4.7 | -4% | 0.71 | -4.0 | -6 | 1.3 | 0.0 |
| C=CCNCC(=O)Nc1sc2c(c1C(=O)Nc1ccc(OC)cc1OC)CCC2 | 2.3 | 4% | 0.7 | -1.2 | -1 | -3.8 | -0.1 |
| N#CCc1c(C#N)c(N)nc(N2CCN(Cc3ccc4c(c3)OCO4)CC2)c1C#N | -2.6 | -2% | 0.62 | 4.8 | -11 | 13 | -0.5 |
| COC(=O)Oc1ccc(/C=N/NC(=O)CN(c2ccccc2Cl)S(C)(=O)=O)cc1OC | . | 4% | . | -3.8 | 7 | -0.5 | 0.2 |
| Cc1cc(C)c(OCCNC(=O)c2ccccc2Sc2ccccc2C#N)c(C)c1 | -2.1 | -2% | 0.71 | -3.6 | 3 | -1.8 | 1.3 |
| O=[N+]([O-])c1nn(-c2ccc3c(c2)OCCO3)n(O)c1=Nc1ccc(Cl)cc1 | 6.1 | 4% | 0.64 | 2.4 | -9 | -0.9 | 0.2 |
| COc1cc(C=O)ccc1OC(=O)c1cccnc1 | 8.6 | . | 0.64 | -3.0 | -1 | 1.5 | 1.2 |
| Cn1c(=O)c(C(=O)NNC(=O)c2cccc(Cl)c2)c(O)c2ccccc21 | -10 | . | 0.62 | 0.5 | 77* | -4.0 | 0.4 |

Next section:
| Structure | UCH37 DUB inh | Vif TR-FRET | Ecoli growth | LANA-H2A inh | B2AR ag | HNF4A DNA FP | Bfl-1 A1 inh |
| --- | --- | --- | --- | --- | --- | --- | --- |
| CC(OC(=O)COc1ccccc1Cc1ccccc1)C(=O)N(C)c1ccccc1 (stereo unspecified) | 0.0 | -1% | 0.65 | -0.5 | -6 | 0.2 | -0.2 |
| COc1ccccc1NS(=O)(=O)c1cccc(C(=O)N/N=C/c2ccc(OCC(=O)O)cc2)c1 | . | -15% | . | 3.8 | -2 | 6.0 | 0.0 |
| O=C(Nc1ccon1)c1sc2ccccc2c1Cl | 4.7 | -14% | 0.67 | 4.9 | -4 | 5.2 | 0.0 |
| CC(C)CN(C(=O)c1ccco1)c1nc2ccccc2s1 | -0.9 | . | 0.69 | 0.7 | 4 | -4.8 | 0.4 |
| COc1cccc(C2/C(=C(/O)c3ccccc3)C(=O)C(=O)N2Cc2ccco2)c1 (stereo unspecified) | 10 | . | 0.69 | 2.4 | -1 | -0.2 | -0.4 |
| CCOc1ccccc1-c1noc(CCCC(=O)NC2CCCCC2)n1 | 4.1 | . | 0.65 | -1.7 | 7 | 1.5 | 0.0 |
| O=C(Cc1cccc2ccccc12)Nc1ccccc1 | 2.2 | . | 0.59 | 0.0 | 1 | 0.7 | 0.5 |
| CCOCCCNC(=O)c1c(N)n(-c2ccc(S(N)(=O)=O)cc2)c2nc3ccccc3nc12 | -54 | 15% | . | -4.2 | -9 | -4.0 | -0.2 |
| CN(Cc1ccccc1)S(=O)(=O)c1ccc2c(c1)NC(=O)CC(=O)N2 | 3.5 | . | 0.67 | 4.8 | -2 | 0.7 | 0.8 |
| COc1cc(/C=C/C(=O)OCC(=O)NCC2CCCCC2)ccc1O | -9.8 | -4% | 0.68 | -1.3 | 14 | -0.3 | -0.6 |
| COc1ccc(Cn2c(C)nc3c(c2=O)c2nc4ccccc4nc2n3Cc2ccco2)cc1 | -39 | . | 0.66 | . | 12 | -53 | . |
| Cc1nc(N2CCC(C)CC2)c2c(C)c(C(=O)Nc3ccc(C(F)(F)F)cc3)sc2n1 | -140 | -13% | 0.7 | 6.5 | 3 | 5.3 | 0.6 |
| C=CCn1c(O)c(C2=c3ccccc3=NC2=O)sc1=Nc1ccc(O)cc1 | 4.4 | . | 0.72 | -4.4 | 2 | -2.9 | -0.4 |
| N#CCNC(=O)c1cccn1-c1ncc(C(F)(F)F)cc1Cl | 0.4 | 1% | 0.69 | 5.2 | -7 | 2.6 | 0.3 |
| COC(=O)c1ccc(NC(=O)c2ccc(NC(=O)c3ccco3)cc2)cc1 | -9.6 | . | 0.73 | -2.6 | 3 | 102* | 0.4 |
| COc1cc(CC(=O)Oc2ccc3c(c2)OCO3)cc(OC)c1OC | 3.7 | 0% | 0.74 | -2.2 | 2 | 0.7 | 0.2 |
